High-throughput results (PubChem)
Mtb hypoxia inh: reduces hypoxia-regulated biosensor signal in M. tuberculosis; M. tuberculosis hypoxia-regulated fluorescent reporter, fluorescence; fluorescence inhibition, % (concentration not given with the values); 300,000 tested, 0.1% active;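 active means 35 to 45% if threefold the growth effect, above 45% if 1.5-fold the growth effect; inactive means the rest, general growth blockers included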;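 further: wells of about 50 µL received 100 nL stock; 0% = vehicle wells and 100% = reference inhibitor wells; whole bacteria with a GFP reporter of the hypoxia response; strong numbers were not always called active; many hits fall short of the cut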
RN4220 kill: S. aureus RN4220 growth inhibition; OD600, 16 h; inhibition, % (no concentration beside the values); 330,000 tested, 0.33% active;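 active means z-score of -3 or lower and OD600 up to 0.18 on both plates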;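 further: plate controls were untreated cells for no effect and reference antibiotic for full effect; stock transfer was 100 nL into about 80 µL; one replicate is shown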
ugtP null kill: compounds lethal to S. aureus RN4220 ugtP deletion mutant; OD600 growth, 16 h; some inactives read as strong as hits; 330,000 tested, 0.54% active; growth inhibition, % (no concentration beside the values);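 active means z-score under -3 and OD600 up to 0.15 on both plates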;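 further: plate controls were untreated wells for no effect and antibiotic for full effect; wells of about 80 µL received 100 nL stock; the first replicate is given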
Bead autofluor: compound fluorescence in toxin protease inhibitor counterscreen; compound autofluorescence counterscreen, microsphere flow cytometry; stronger effect = higher value; fluorescence intensity (concentration not given with the values); 360,000 tested, 3.1% active; AID 624483;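 active means at least 3 SD above the mean of all compounds, about 16000 in these data; inconclusive means too few beads counted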;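 further: 100 nL of 1 mM stock went into each well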
BJeLR lethal: BJeLR cell viability loss | inhibition, % (no concentration beside the values) | 300,000 tested, 0.17% active | BJeLR (HRASV12) viability, CellTiter-Glo ATP luminescence, 48 h; reference of the scale not given here;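 active means replicate mean above 50%; inconclusive means above 50% but judged a plate artefact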;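 further: 50 nL library stock added to about 25 µL; numbers are from one replicate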
PrP UTR inh: suppresses PrP 5' UTR mRNA reporter expression | cell-based PrP 5' UTR mRNA reporter, plate reader | 340,000 tested, 0.35% active | AID 488862 | inhibition, % (test concentration not listed);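 active means every replicate at 50% or more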;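 further: 0 = median of the neutral control wells; tested in H4 reporter cells; numbers are from one replicate; inactives centre near -14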
Mtb hypoxia inh growth: second read-out of Mtb hypoxia inh, no call of its own (marks repeat the call); growth inhibition, %; measured here: M. tuberculosis growth (absorbance);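 0% = vehicle and 100% = reference antibiotic; read after six days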
Active calls of the source: *; ? = inconclusive; · = not tested or not shown.

SMILES	Mtb hypoxia inh	Mtb hypoxia inh growth	RN4220 kill	ugtP null kill	Bead autofluor	BJeLR lethal	PrP UTR inh
CSCC[C@H](NC(=O)C1CCN(C(=O)[C@@H](N)Cc2ccccc2)CC1)C(=O)O	-6.8	6.6	2.8	3.0	3573	4.0	-6.0
CCOC(=O)c1ccc(NC(=O)N2CCCCC2)cc1	·	·	0.5	3.6	3015	2.0	-56.2
CC1CC(C)(C)NC(C)c2ccccc21 (centres undefined)	·	·	0.3	13.8	3784	1.9	-5.2
Cc1cnc(C(=O)Nc2ccc(F)c(F)c2)cn1	·	·	-3.0	7.4	4708	9.2	-57.8
COC(=O)C1(C)NC(c2ccc(F)cc2)C2C(=O)N(c3ccccc3)C(=O)C21 (centres undefined)	-3.0	-5.0	2.2	12.5	·	-4.7	-18.3
C=CCNc1ncnc2c1cnn2-c1ccc(Cl)cc1	5.8	5.2	2.1	10.2	5368	-1.1	-45.2
CCOC(=O)C(NC(C)=O)C(OC(C)=O)c1cccc([N+](=O)[O-])c1 (centres undefined)	·	·	-1.8	2.2	3725	-1.7	2.8
C=C1CCN(C(Cc2ccccc2)C(=O)NC2CCN(Cc3ccccc3)CC2)S(=O)(=O)c2ccccc21 (centres undefined)	18.8	7.7	7.8	13.2	·	·	·
CC(=O)c1ccccc1OCC(O)CNC1CCCC1 (centres undefined)	3.6	4.8	0.4	3.3	5588	4.9	1.6
CCN(C(=O)COC(=O)CNC(=O)c1cccs1)c1c(N)n(Cc2ccccc2)c(=O)[nH]c1=O	10.5	8.6	4.4	6.6	2957	·	-1.3
Cc1nn(C(C)(C)C)c(NC(=O)c2ccc(Cl)cc2)c1Br	7.4	-5.0	-0.8	4.7	5284	0.2	-11.0
COC(=O)c1cccc(NC(=O)C2C3CCC(C3)C2C(=O)O)c1 (centres undefined)	-1.9	-4.1	0.1	-2.0	?	-6.2	-10.5
O=C(CSc1ccc(Cl)cc1)Nc1ccc(-c2nc3ccccc3[nH]2)cc1	·	·	·	·	2418	-4.3	-22.5
CCOC(=O)c1c(C)n(-c2ccc(C)cc2)c2ccc(OCC(O)CN3CCN(C)CC3)cc12 (centres undefined)	14.1	9.8	3.6	7.0	3348	·	-15.3
Cn1nccc1C(=O)Nc1ccc(OC(=O)c2ccnn2C)cc1	-5.6	4.3	2.1	0.1	8712	1.6	-3.0

Compound profiles (already shown). Screens in order: Mtb hypoxia inh | Mtb hypoxia inh growth | RN4220 kill | ugtP null kill | Bead autofluor | BJeLR lethal | PrP UTR inh
CC(=O)c1ccccc1OCC(O)CNC1CCCC1 (centres undefined) is listed with 3.6 | 4.8 | 0.4 | 3.3 | 5588 | 4.9 | 1.6
CSCC[C@H](NC(=O)C1CCN(C(=O)[C@@H](N)Cc2ccccc2)CC1)C(=O)O is listed with -6.8 | 6.6 | 2.8 | 3.0 | 3573 | 4.0 | -6.0
Cc1cnc(C(=O)Nc2ccc(F)c(F)c2)cn1 is listed with · | · | -3.0 | 7.4 | 4708 | 9.2 | -57.8
CCOC(=O)c1c(C)n(-c2ccc(C)cc2)c2ccc(OCC(O)CN3CCN(C)CC3)cc12 (centres undefined) is listed with 14.1 | 9.8 | 3.6 | 7.0 | 3348 | · | -15.3
Cc1nn(C(C)(C)C)c(NC(=O)c2ccc(Cl)cc2)c1Br is listed with 7.4 | -5.0 | -0.8 | 4.7 | 5284 | 0.2 | -11.0

(cont.)
SMILES	Mtb hypoxia inh	Mtb hypoxia inh growth	RN4220 kill	ugtP null kill	Bead autofluor	BJeLR lethal	PrP UTR inh
O=C(Oc1ccc2c(c1)O/C(=C\c1ccncc1)C2=O)c1cccs1	2.8	3.0	13.0	16.1	6074	2.4	-57.6
Cn1cccc1/C=N/N1CCN(Cc2ccccc2Cl)CC1	·	·	·	·	3617	-20.0	-42.2
O=C(CCNC(=O)c1ccc(Br)cc1)Nc1ccccc1N1CCOCC1	1.1	6.9	1.1	-0.6	·	-3.7	-4.3
COCCCNC(=O)c1c(NC(=O)c2ccco2)n(Cc2ccccc2)c2nc3ccccc3nc12	-6.7	4.4	3.8	5.9	2513	2.4	-10.6
Cc1cccc(N2CCN(C(=O)CCn3c(=S)[nH]c4cc5c(cc4c3=O)OCO5)CC2C)c1 (centres undefined)	3.4	3.9	8.1	-13.2	10005	1.9	1.5
CN1CCN(C(=O)/C(=C/c2cccc([N+](=O)[O-])c2)NC(=O)c2ccccc2)CC1	7.4	13.3	0.7	2.1	3690	6.7	-29.5
O=C(CCN1C(=O)/C(=C\c2ccco2)SC1=S)Nc1ccc(C(=O)O)c(O)c1	-3.7	11.3	4.3	4.6	4213	-6.0	8.4
CC(=NNC(=S)Nc1ccc(C)cc1)c1cc2ccccc2o1	-11.2	3.4	0.0	15.0	·	·	·
Cn1c(=O)n(C)c2cc(NC(=O)c3cccc([N+](=O)[O-])c3)c(Br)cc21	-4.0	0.6	10.2	2.7	3416	-8.0	4.6
COCCn1c(=O)[nH]c2cc(C(=O)NCCN3CCN(c4cccc(Cl)c4)CC3)ccc2c1=O	1.1	10.6	2.9	-0.3	8343	4.7	-25.6
Brc1cccc(C2Nc3cccc4cccc(c34)N2)c1	3.1	-4.5	7.2	12.8	3150	14.3	-40.1
CCn1c2ccccc2c2cc(NC(=O)COC(=O)c3ccccc3O)ccc21	11.4	2.3	4.7	-6.1	2262	-8.5	-9.7
CCOC(=O)C1(Cc2ccccc2)CCN(Cc2cnn(-c3ccccc3)c2)CC1	3.5	3.1	2.3	-3.1	4270	-0.8	-24.0
CC(=O)Nc1ccc(C(=O)NN2C(=O)c3ccccc3C2=O)cc1	-2.2	3.4	2.4	2.1	4746	0.0	-26.2
O=C(Nc1ccc(O)c(C(=O)O)c1)c1cccc(NC(=O)c2ccco2)c1	-4.3	5.5	1.1	-0.5	3577	3.3	-11.9
Cc1cccc(C)c1OCc1n[nH]c(=S)n1N	6.5	13.8	3.3	3.2	3366	-5.7	-26.6
CCOc1ccc(-n2c(-c3ccccc3)c[nH]c2=S)cc1	8.2	7.6	2.8	12.8	4918	-3.3	-11.1
CCCCCCOc1ccc(C(=O)NCCCn2ccnc2)cc1	12.7	0.5	1.4	8.0	4365	0.1	-27.3
CCN1CCN(CC(=O)N2N=C(c3cccs3)CC2c2ccc(F)cc2)C(=O)C1=O (centres undefined)	2.1	-3.1	0.2	1.7	4065	11.4	-28.8
COc1ccccc1NC(=O)COC(=O)c1cc(C)oc1C	4.0	1.5	4.8	9.7	2654	·	-30.9
O=C(CCNC(=O)c1ccc([N+](=O)[O-])cc1)N/N=C/c1ccc(F)cc1	·	·	·	·	3951	10.4	2.4
Cc1ccc(C(=O)NC(=S)NNC(=O)COc2ccc([N+](=O)[O-])cc2)cc1	10.8	-0.9	35.6	14.2	4823	0.2	-5.7
CCc1ccc(NCc2cc3c(C)nn(-c4ccccc4)c3[nH]c2=O)cc1	8.2	9.1	6.3	28.9	13009	-6.7	-15.4
COc1ccc(CNS(=O)(=O)c2c(C(=O)N3CCCCC3)c(C)n(C)c2C)cc1	16.7	3.8	5.6	0.3	6020	-8.3	-22.9
CCOC(=O)C1=C(c2ccccc2)OC(N)=C(C#N)C1C1CCCCC1 (centres undefined)	·	·	6.6	8.3	2246	-1.7	-10.8
CCC(NC(=O)c1cc(COc2cncc(Cl)c2)on1)c1ccc(C)cc1 (centres undefined)	·	·	·	·	6262	-9.6	-10.6
CN(C)c1cccc(C(=O)OCC(=O)N(Cc2ccccc2)C2CCS(=O)(=O)C2)c1 (centres undefined)	2.0	5.2	1.2	-0.2	3370	·	59.5*
CCCN(CC(=O)Nc1ccc(C)cc1Br)CC(=O)Nc1ccc(F)c(F)c1F	·	·	·	·	9268	-3.5	-3.3
CCOP(=O)(OCC)OCC	6.1	13.9	1.7	5.7	4608	·	-6.7
COc1ccc(CNC(=O)C2CCCN2S(=O)(=O)c2ccccc2)cc1 (centres undefined)	14.9	8.3	3.2	3.4	8189	-7.7	-17.5
COc1ccc(C)cc1NC(=O)CN1CCCN(S(=O)(=O)c2ccc(Br)cc2)CC1	-7.4	6.1	4.8	-1.3	5407	-8.0	3.7
COc1cccc(S(=O)(=O)Nc2ccc(C(=O)Nc3ccncc3)cc2)c1	5.1	4.2	1.8	10.7	7918	23.5	-13.2
CCOC(=O)c1c(C(=O)OCC)c(C)n(N2C(=O)CSC2=S)c1C	·	·	·	·	?	13.1	-7.5
O=C(Nc1cccc(C(F)(F)F)c1)c1cccc(NS(=O)(=O)c2ccc(Br)c(C(=O)O)c2)c1	4.1	12.6	3.4	1.6	5063	3.1	4.1
O=C(Nc1cccc(C2=NCCN2)c1)Nc1cccc(C2=NCCN2)c1	-1.2	-2.9	11.1	4.5	6394	·	-20.5
Cc1cc(C)cc(C(=O)Nc2ccc(NC(=O)Cc3ccccc3)cc2)c1	-1.1	5.4	1.7	-1.1	4377	2.9	11.2
CC(=N/N=C1/NC(=O)C(CC(=O)Nc2ccc(C)c(Cl)c2)S1)C(C)(C)C (centres undefined)	4.1	0.0	7.3	-14.8	·	·	·
COc1ccccc1Oc1ncnc2c1cnn2-c1ccccc1	4.3	7.7	2.2	-1.2	4385	-1.1	-22.7
Cc1nn(CC(C)C)c(=S)[nH]c1=O	-3.1	3.5	-1.7	-4.7	23998*	-2.6	0.5
O=C(CNC(=O)Cc1ccccc1)NCC(=O)OCc1ccccc1	11.7	-7.0	7.7	9.9	2284	-6.1	-7.8
CCOC(=O)c1c(NC(=O)CN2C(=O)NC3(CCCCC3C)C2=O)sc(C(=O)N(C)C)c1C (centres undefined)	4.9	3.9	0.3	4.0	5500	-8.5	5.1
CC(C)c1nnc(NC(=O)Cc2cccs2)s1	0.3	8.6	0.5	-7.8	5997	-2.7	-9.1
Cc1nc(SCC(=O)Nc2ccc(CN3CCCC3)cc2)c2c(C)c(C)sc2n1	-1.5	11.3	3.1	5.4	4407	·	-21.6
CN(Cc1ccccc1F)C(=O)C1CCCN(C(=O)c2ccc(Cl)cc2)C1 (centres undefined)	3.7	2.4	-1.7	4.8	?	·	-18.6
COc1cccc(C(=O)Nc2cc([N+](=O)[O-])ccc2N2CCN(C)CC2)c1	-1.7	3.2	0.4	-4.9	24311*	3.3	6.9
CCOc1ccc(CNc2ncc(-c3ccccc3)n2C)cc1	9.3	6.1	-4.5	-0.7	3159	-5.0	-17.2
O=S(=O)(c1cnc[nH]1)N1CCN(c2ccccc2)CC1	2.9	5.9	3.4	-2.6	6085	2.7	-14.3
COc1ccc(CNC(=O)CSc2nc(SC)ns2)cc1	2.0	4.0	2.0	3.5	4213	3.6	-17.9
O=C(Cc1ccccc1)Nc1ccc(CN2CCOCC2)cc1	-7.6	4.3	-2.5	-6.3	10349	-7.7	-46.6
CCc1ccc(NC(=S)NC2CC3CCC(C2)N3Cc2ccco2)cc1 (centres undefined)	10.6	-3.4	2.1	0.0	5533	10.6	-17.9
O=C(Nc1ccccc1)/C(=C/c1cccc(Br)c1)NC(=O)c1ccco1	-3.4	3.2	3.1	-4.3	3169	-5.4	-21.5
CCOC(=O)C1=C(O)/C(=C/c2ccc(OCC(=O)O)c(OC)c2)SC1=Nc1ccc(OCC)cc1	5.1	3.6	12.9	-3.0	2543	-11.2	-81.7
COCCn1c(-c2ccc(OC)cc2)nc2oc3cc(OC)ccc3c(=O)c2c1=O	3.5	-2.2	5.2	-11.2	20954*	7.2	-12.0
O=C(Cc1c[nH]c2ccccc12)NCC(=O)Nc1ccc(F)c(F)c1F	3.0	9.3	-0.3	-2.4	3363	·	1.1
S=c1[nH]nc(-c2cccnc2)n1Cc1ccccc1	3.3	1.5	-2.7	-9.4	9914	4.5	-13.5
O=C(CSc1nnc(-c2ccco2)o1)NCCc1ccccc1	38.2*	14.1*	0.9	3.7	6935	·	-7.8
N#CCSc1nnc(Nc2ccccc2)s1	3.5	5.9	3.5	-3.0	10490	-9.6	2.7
Cc1onc(-c2ccccc2)c1C(=O)N/N=C/c1ccc([N+](=O)[O-])c(O)c1	·	·	·	·	6615	-4.5	-13.4
Cc1cc(C)cc(OCC(=O)NC2=NCCS2)c1	0.9	5.1	2.8	-3.3	4639	8.1	-9.4
CCCCc1c(C)nc(N2CCCC2)[nH]c1=O	-1.4	0.5	1.8	6.7	3628	8.0	-22.0
CCN(CC)c1ccc(NC(=O)CCc2nnc3ccc(N4CCCCC4)nn23)c(C)c1	·	·	3.2	3.8	4473	2.6	-6.6

No enrichment for hits. About 4% of those tested had a hit in this group.
